# Compound activity from PubChem BioAssay.
# HPGD inh: inhibitors of human 15-hydroxyprostaglandin dehydrogenase (HPGD); P15428; purified HPGD, NADH fluorescence kinetic, PGE2 substrate; Potency, µM, for the others: at the top dose activity change, negative = inhibition, usual class: inhibitors; actives 4.3% (n = 150,000); AID 894; active = well fitted inhibition curve with a large enough effect (not every such curve was filed as active); inconclusive = small, poorly fitted or top-dose-only effect, or another doubt; inactive = no such curve, though single readings can be large or run the other way;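 note: top concentration of the series not given in the record; plate controls included wells without enzyme; inactives centre near -10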
# Target sequence (P15428 whole entry, looked up): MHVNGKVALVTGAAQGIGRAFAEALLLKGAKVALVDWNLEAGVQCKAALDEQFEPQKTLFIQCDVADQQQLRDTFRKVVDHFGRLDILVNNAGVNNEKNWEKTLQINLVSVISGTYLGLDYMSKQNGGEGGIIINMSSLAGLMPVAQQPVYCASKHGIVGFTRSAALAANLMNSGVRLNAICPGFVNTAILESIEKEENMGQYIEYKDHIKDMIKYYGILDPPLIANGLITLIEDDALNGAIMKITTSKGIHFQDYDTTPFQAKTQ
#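 NADH formation kinetics: reaction with 30 uM PGE2 and 1 mM NAD+ (final), 20 nM enzyme, Tris-HCl pH 8 with Tween 20, after 15 min compound preincubation at room temperature. Fluorescence change, last versus first of five reads.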
# Starred values were filed as active, the others as inactive; u = inconclusive; & = joins results of further samples. % is set by controls: 0 for no effect and ±100 for the full control effect; potency is the fitted concentration of half-maximal effect.
canonical_smiles	HPGD inh
O=C(Nc1ccc(O)c2c(=O)cc(-c3ccccc3Cl)oc12)c1ccccc1Cl	-1.7%&-12.2%
CCN1C(=O)c2cccc3c(NC(=O)c4ccc(OC)c(OC)c4)ccc1c23	-6.1%
Cc1ccc(N2C(=O)C(Cc3ccc(O)cc3)NC2=S)cc1C (stereo unspecified)	-3.3%
CC(C)(C)NC(=O)[C@@H]1CC[C@@H]2[C@@H]3CC[C@@H]4NC(=O)C=C[C@@]4(C)[C@H]3CC[C@]21C	-5.5%
NS(=O)(=O)c1ccc(NC(=S)Nc2nn(Cc3ccc(Cl)cc3Cl)cc2Cl)cc1	-9.2%
Cc1cccc(Nc2nnc(SCC(=O)Nc3ccccc3[N+](=O)[O-])s2)c1	-11.4%
C=CC[n+]1c(-c2ccc(OC)c(OC)c2)csc1NNC(=O)Nc1ccccc1	-21.3%
CCOc1ccc(/C=N/NC(=O)Cc2csc(Nc3cccc(C(F)(F)F)c3)n2)cc1	u
Cc1ccc(S(=O)(=O)N2CCN(CC(=O)N(CC(C)C)c3c(N)n(CC(C)C)c(=O)[nH]c3=O)CC2)c(C)c1	-7.5%
COc1ccc(Cc2nnc(SCc3nc4ccccc4c(=O)[nH]3)n2C)cc1	-9.5%
COc1ccc(C)cc1NC(=O)Nc1ccccc1	-11.7%
Nc1ncnc2nc(SCC(=O)N3CCN(c4ccccc4)CC3)[nH]c12	-10.2%
Cc1ccc(-c2cc(C(=O)N/N=C/C=C/c3ccco3)c3ccccc3n2)cc1C	-22.7%
COc1ccc(-c2nn(-c3ccccc3)cc2/C=C/C(=O)OCC(=O)Nc2ccc(C#N)cc2)cc1	u
CCCCOc1ccc(-c2cn3ccccc3n2)cc1[N+](=O)[O-]	-11.4%
Cc1cc(Cl)cc(Cl)c1OCCCCN(C)C	0.0%
CCOc1ccc(NC(=NCc2ccc3c(c2)OCO3)SC2CC(=O)N(c3ccccc3)C2=O)cc1 (stereo unspecified)	-6.5%
CC12CC(c3ccccc3O1)N(C(=O)c1ccco1)C(=S)N2c1ccc(F)cc1 (stereo unspecified)	-6.1%
CC1(C)Cc2c(C#N)c(N)sc(=S)c2CS1	-11.8%
COc1ccc2c(C(=O)CN3CCC(C)CC3)c[nH]c2c1	-1.1%
COc1ccc(-c2cc(C(F)(F)F)n3nc(C(=O)O)nc3n2)cc1	u
COc1ccc(CNC(=O)c2ccc(-c3ccccc3)cc2)cc1OC	-4.4%
CC(C)(C)c1cc(C(=S)N2CCN(CCO)CC2)cc(C(C)(C)C)c1O	25.1µM*
CC(C)c1cc(C(=O)NC2CCCCC2)no1	-4.4%
CCN1CCN(Cc2nc3c(c(=O)n(C)c(=O)n3C)n2CCCc2ccccc2)CC1	-14.4%
CCCc1nn(C)c(C(=O)Nc2ccc(Cl)cc2)c1Cl	-8.7%
Clc1ccc(OCCSc2ncccn2)cc1	-15.8%
CCOc1ccc(N2C(=O)CC(N(C)Cc3ccccc3)C2=O)cc1 (stereo unspecified)	-10.9%
O=C(CC1Nc2ccccc2NC1=O)NCC1COc2ccccc2O1 (stereo unspecified)	u
COc1ccc(NC(=O)OCCN2CCN(Cc3ccccc3)CCC2=O)cc1	1.6%&-10.6%
COC(=O)c1c(NC(=O)CN2CCC(C(N)=O)CC2)c2c(C)cccc2n1C	-9.1%
C[C@H](CCC(=O)O)[C@H]1CC[C@@H]2[C@H]3CC[C@H]4C[C@H](O)CC[C@]4(C)[C@@H]3CC[C@@]21C	11.8%
CCOC(=O)N1CCC(N(CCN(C)C)C(=S)Nc2cccc(C)c2)CC1	-0.3%
Cc1cc(C)c(O)c(-c2cc(C(=O)Nc3ccc(S(=O)(=O)N4CCOCC4)cc3)[nH]n2)c1	-6.8%
C[C@@](N)(/C=C\c1ccccc1)C(=O)O	-6.0%
CC(=O)NC(C)(C)C1CC=C(C)/C(=N\O)C1 (stereo unspecified)	-11.4%
Cc1ccc(C)c(N)c1	-4.6%
CC(Sc1nncn1C)C(=O)Nc1nnc(-c2ccccc2)s1 (stereo unspecified)	-15.1%
CCOc1ccc2c(c1)C(c1ccccc1)=NNC(c1ccccc1)=N2	-14.5%
O=C(c1ccco1)N1CCC2(CC1)CN(C(c1ccccc1)c1ccccc1)C2	-7.4%
Cn1c(=O)n(C)c2cc([N+](=O)[O-])c(N3CCN(S(C)(=O)=O)CC3)cc21	-4.6%
CC(=O)Nc1ccc(S(=O)(=O)NCc2csc(-c3cccnc3)n2)cc1	-16.4%
CC(N)=NCc1cccc(CN)c1	-7.3%&-0.7%
COC(=O)C1CSc2[nH]c(=O)sc2C1c1ccc(O)c(OC)c1 (stereo unspecified)	u
O=C(CN1/C(=C(/O)c2ccccc2)C(=O)c2ccccc2S1(=O)=O)c1ccccc1	-5.1%
CCn1c(=O)cc(SCC(=O)N2CCN(C)CC2)c2ccccc21	u
O=C(COC(=O)c1ccc(Br)o1)NCCCc1ccccc1	-21.3%
O=C(C1CCN(S(=O)(=O)c2cccc3cccnc23)CC1)N1CCN(C2CCCC2)CC1	-8.1%
Cc1ccc(C)c2[nH]c(=O)c(C(c3nnnn3Cc3ccco3)N3CCc4ccccc4C3)cc12 (stereo unspecified)	u
CSc1nnc(-c2sc3cc(C(F)(F)F)cnc3c2-c2ccccn2)n1C	u
COc1ccc(N(C(=O)c2ccccc2C)S(=O)(=O)c2cccs2)cc1	-15.0%
c1ccc(N2CCN(c3ncnc4c3oc3ccccc34)CC2)cc1	u
O=C(c1ccco1)n1nc(-c2ccccc2)nc1SCc1ccccc1	17.8µM*
Cn1c(=O)oc2cc(S(=O)(=O)N3CCC(C(=O)NCc4cccs4)CC3)ccc21	-10.5%
O=C(Nc1cccc(OC(F)(F)F)c1)c1ccc(Br)o1	25.1µM*
COCCNC(=O)CSc1nnc(CCCN2C(=O)c3cccc4cccc(c34)C2=O)n1-c1ccccc1	-17.4%

# Next section
canonical_smiles	HPGD inh
COCCn1c(C)cc(/C=C2/NC(=O)N(c3ccc(Cl)cc3)C2=O)c1C	-20.7%
CN1CCN(C(=O)CCCOc2cc(=O)n(C)c3ccccc23)CC1	-6.3%
CN(C)c1ccc(C2C=C(c3ccc(Cl)cc3OC(F)F)Nc3ncnn32)cc1 (stereo unspecified)	-9.5%
O=C(O)/C=C/c1cccc(B(O)O)c1	-11.5%
C=CCc1c(C)nc(SCC(N)=O)[nH]c1=O	-28.6%
Cc1nnc(SCC(=O)N2CCC(C(=O)Nc3nccs3)CC2)n1Cc1ccccc1	-2.7%
Nc1nnnn1/N=C/c1ccccc1OCc1ccc(Cl)cc1Cl	-29.4%
COc1ccc(-c2cc(C(=O)Nc3ccc(C)cc3)no2)cc1	u
O=C(NCc1ccncc1)C(=O)NCC(c1ccccc1)c1ccccc1	-13.6%
Brc1ccc(-c2cnc(-c3cccs3)o2)cc1	u
CCCCCC1CC(/C(C)=N/NC(N)=O)OC1=O (stereo unspecified)	-16.5%
Cc1ccc2c(c1)cc(CN(Cc1ccco1)C(=O)COc1ccccc1)c1nnnn12	-19.2%
CCC(C)Nc1nc(OCC(F)(F)F)nc(OCC(F)(F)F)n1 (stereo unspecified)	-12.3%
C[C@@H]1CC[C@@]2(OC1)OC1CC3C4CC=C5CC(O)CCC5(C)C4CCC3(C)C1[C@@H]2C (stereo partly specified)	-5.8%
Cc1cccc2[nH]c3c(N4CCC5(CC4)OCCO5)ncnc3c12	u
CN(C)/C=C1/C(=O)Nc2ccccc21	-9.6%
O=C(Cn1c(=O)oc2ccccc21)c1ccccc1	-4.9%
CC1(C)Cc2cccc(OCC(O)CN3CCN(c4ccccn4)CC3)c2O1 (stereo unspecified)	-3.5%
CCCn1cc(SCC(=O)NCc2ccco2)c2ccccc21	17.8µM*
CC(C)(C)OC(=O)N[C@H](Cc1ccccc1)C(=O)N1CCC(C(=O)O)CC1	-12.0%
CCN(C(=O)CSc1ccc2c(c1)OCCO2)C1CCS(=O)(=O)C1 (stereo unspecified)	-8.0%
O=C(CSc1nnc(Cn2cnc3ccccc32)o1)Nc1cccc2ccccc12	-9.0%
O=C(O)CC1C(=O)OCN1C(=O)OCc1ccccc1 (stereo unspecified)	-5.1%
CCOc1ccc2nc(SCC(=O)N3c4ccccc4Sc4ccccc43)c(C#N)cc2c1	-17.0%
N#Cc1c(C(F)(F)F)cc(-c2ccccc2Cl)[nH]c1=O	u
Cc1cccc(C2=NN(c3ccccc3)[C@@H](C(=O)N3CCOC3=O)[C@@H]2c2ccc(F)cc2)c1	u
CN(C)CCNC(=O)c1coc(=O)c(Br)c1	u
CCC(=O)Nc1nonc1-c1nc2ccccc2n1CC(C)C	u
CC(C)NC[C@@H](O)COc1ccc(COCCOC(C)C)cc1	-0.7%&-10.7%
Cc1ccc(Cl)cc1N1CCN(C(=O)CSc2nnc3n2C(C)(C)Cc2ccccc2-3)CC1	-8.3%
ClC(Cl)c1nnc(-c2ccccc2)c(-c2c[nH]c3ccccc23)n1	-14.1%
NCC(=O)CCC(=O)O	-7.2%

# Rewritten with the structure last: part of the list above.
HPGD inh	SMILES
-7.4%	O=C(c1ccco1)N1CCC2(CC1)CN(C(c1ccccc1)c1ccccc1)C2
-4.6%	Cn1c(=O)n(C)c2cc([N+](=O)[O-])c(N3CCN(S(C)(=O)=O)CC3)cc21

# New compounds follow
canonical_smiles	HPGD inh
c1ccc(CC2CCN(Cc3nc(-c4ccccc4)no3)CC2)cc1	-1.7%
Cc1nc2[nH]c(=O)c3c(n2n1)NC1=C(C(=O)CC(C)(C)C1)C3c1ccc(F)cc1 (stereo unspecified)	u
O=C(Cc1cccs1)Nn1c(Cc2cccs2)nc2ccccc2c1=O	-8.4%
C=CCn1c(NCCc2ccccc2)nc2c1c(=O)n(C)c(=O)n2C	-2.6%
Cc1cccc(OCc2nc3c4c(ncn3n2)-c2ccccc2CC42CCCC2)c1	u
COc1ccc(CN2CCN(C)CC2)cc1OCc1ccccc1	-4.4%
CC1=C(C)CC(C(=O)Nc2ccc(C(N)=O)cc2)C(C(=O)O)C1 (stereo unspecified)	-0.7%
CCCCN(C(=O)NC(=O)Nc1ccccc1OCC)S(C)(=O)=O	-1.2%
Cc1ccc(NC(=O)C2CCCN2S(=O)(=O)c2ccc(F)cc2)c(C)c1 (stereo unspecified)	-1.6%
CC(=O)c1ccc(OC(=O)c2ccc(Br)o2)cc1	-11.2%
COc1cccc(OC)c1C(=O)NNC(=O)c1cccc(COc2ccc3c(c2)CCC3)c1	-6.1%
CC1CCCN(S(=O)(=O)c2ccccc2[N+](=O)[O-])C1 (stereo unspecified)	-9.8%
Cc1cccc(N2C(=O)c3cccc(Oc4ccc(Cl)cc4)c3C2=O)c1	-4.9%
Cc1cccc(C(=O)N2CCN(c3ncnc4c3cnn4-c3ccccc3)CC2)c1	-4.3%
CCC(Oc1ccccc1)C(=O)Nc1nc2ccccc2[nH]1 (stereo unspecified)	-2.8%
Cc1ccc(NC(=O)C(=O)NCCN2CCN(C(=O)C(c3ccccc3)c3ccccc3)CC2)cc1	-6.5%
Cc1cc(NC(=O)CSc2nc3c(c(=O)n2CCc2ccccc2)SC(C)C3)no1 (stereo unspecified)	-6.0%
COc1ccc(NC(=O)CSc2nnc(CNC(=O)c3ccco3)o2)c(OC)c1	-10.8%
COc1ccc(C(c2nnnn2C2CCCCC2)N2CCN(c3ccccc3)CC2)cc1 (stereo unspecified)	-9.4%
O=C(NCc1ccco1)C1(c2ccc(Cl)cc2)CCCC1	-8.0%
Cn1c(=O)c2c(nc(SCC(=O)O)n2Cc2cc3c(cc2Cl)OCO3)n(C)c1=O	25.1µM*
CCOC(=O)c1c(C)c(C(=O)NCC2CCCO2)c(C)n1CC (stereo unspecified)	22.4µM*
O=C(Nc1cccc2c1CCCC2)C1CCN(C(=O)NC2CCCCC2)CC1	-8.6%
O=C1CC(c2ccco2)CC(O)=C1C=NCCN1CCN(C2CC(=O)N(c3ccccc3)C2=O)CC1 (stereo unspecified)	-11.0%
N#C/C(=N\Nc1ccc(F)cc1)C(=N)N1CCCCC1	-24.6%
CC(Oc1ccc(Cl)cc1Cl)c1nc(-c2ccccn2)no1 (stereo unspecified)	-21.9%
O=C(SCc1cccc2ccccc12)c1ccc(Cl)cc1	-8.3%
Cc1cccc(NC(=O)COc2ccc(/C=N\n3cnnc3)cc2)c1	-4.1%
Cn1nc(-c2ccc(C(=O)Nc3cccnc3)cc2)c2ccccc2c1=O	u
CCOC(=O)C1=C(Nc2ccccc2)CC(C)(O)C(C(=O)OCC)C1c1ccc(Cl)cc1 (stereo unspecified)	-6.9%
COCCCNC(=O)C1CC(=O)OC1c1ccc(OC)c(OC)c1 (stereo unspecified)	-8.2%
COc1ccc(N2CCN(CCCNC(=O)c3cc4sccc4n3C)CC2)cc1	-6.7%
Cc1nc(N)c(C#N)c(-c2cccnc2)c1C	-10.6%
Cc1ccc(Nc2nc(N)c([N+](=O)[O-])c(N3CCCC(C)C3)n2)cc1C (stereo unspecified)	-18.2%
Cn1c(=O)c2c(nc(Br)n2C)n(C)c1=O	0.5%
O=C(Nc1ccc(Cl)c(Cl)c1)Nc1ccc(N2CCCC2)c(S(=O)(=O)Nc2ccccc2Cl)c1	-11.7%
CCn1c(SCC(=O)NCCOC)nc2sc3c(c2c1=O)CCCC3	-11.9%
C/C(CCN1CCc2nc(-c3ccccc3)c(-c3ccccc3)cc2C1)=N\OC[C@@H](C)[C@H](OCc1ccccc1)C(C)C	-3.0%

# A portion of the library; the hit share may differ from the screen's.
